# PNC assembly inh: blocks assembly of the perinucleolar compartment; 3.1% of 140,000 active; activity change (PNC), negative = inhibition, % at 10 µM; PC3M PTB-GFP, PNC prevalence imaging, 16 h; hits give low values;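 active means readout at or below -70, meaning at least 70% loss of cells showing the perinucleolar compartment, a nuclear body marking cancer cells; inconclusive means readout between -30 and a set limit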;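 further: plate controls were DMSO wells for no effect and camptothecin positive control wells for full effect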
#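 Read-out is percentage of cells bearing a perinucleolar compartment, from automated 20x imaging of fixed, Hoechst-stained PC3M PTB-GFP cells. Cells were seeded 4 h, then exposed 16 h to compound (23 nl of library stock) in duplicate plates.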
# IMPase cell inh: membrane-permeable compound that blocks inositol monophosphatase; P97697; CHO-M1 cells, IP1 accumulation, HTRF TR-FRET ratio; inhibition (IP1 accumulation), % at 46.1 µM; 120,000 tested, under 10 active; AID 901; active means well fitted curve in the direction sought with a large enough effect in the signal ratio, not every such curve was filed as active; inconclusive means small, poorly fitted or top-dose-only effect, or a change in a side signal; inactive means no such curve, though single readings can be large or run the other way; the % refers to the signal ratio;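 further: cells stimulated with carbachol in lithium chloride buffer; plate controls were DMSO basal wells for no effect and reference inhibitor wells for full effect; higher means more IMPase inhibition seen as more IP1 and lower FRET ratio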
# Target sequence (P97697 whole entry, looked up): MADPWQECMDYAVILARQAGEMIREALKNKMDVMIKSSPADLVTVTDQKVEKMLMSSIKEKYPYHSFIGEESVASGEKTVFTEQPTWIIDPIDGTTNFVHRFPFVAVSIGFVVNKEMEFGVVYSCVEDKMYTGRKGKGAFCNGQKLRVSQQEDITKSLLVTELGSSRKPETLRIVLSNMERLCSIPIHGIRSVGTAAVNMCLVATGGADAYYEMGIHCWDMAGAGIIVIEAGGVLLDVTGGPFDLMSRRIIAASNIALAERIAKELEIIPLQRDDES
#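 In this qHTS, compounds (final up to 46 uM) act on CHO-M1 cells that are then activated through the M1 receptor with carbachol, in pH 7.4 buffer containing 50 mM LiCl, for 30 min. IP1 accumulation is quantified by the IP-One immunoassay.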
# * marks the source's active call; other numbers are inactive results; ? = inconclusive; [ ] = another dose, or the depositor's remark.
1	COc1ccccc1NC(=O)C1=C(C)N(c2ccccc2)C(=S)NC1c1cccc(C(F)(F)F)c1 (stereo not given)
2	O=C1C(CCS(=O)c2ccccc2)C(=O)N(c2ccccc2)N1c1ccccc1 (stereo not given)
3	CCN1c2ccccc2NC2N=C(OC)C(c3ccccc3)C21 (stereo not given)
4	CC(C)c1ccccc1NC(=S)NN(Cc1ccccc1)c1ccccc1
5	O=C1OCC(CO)(CO)N=C1NNc1ccc(Cl)c(Cl)c1
6	COc1ccc(C(=O)NC(=S)NC(C)C)cc1Br
7	S=c1nc(-c2cccc(Br)c2)[nH][nH]1
8	Cc1ccc(C(=O)O)cc1NC(=S)NC(=O)C(c1ccccc1)c1ccccc1
9	Cc1ccccc1NC(=S)NCCC(c1ccccc1)c1ccccc1
10	Cc1ccc(NC(=S)N/N=C/c2ccc(OCCC(C)C)cc2)c(C)c1
assay / entry	1	2	3	4	5	6	7	8	9	10
PNC assembly inh	29.8	9.6	-10.0	54.4	22.0	?	-25.0	?	6.2	?
IMPase cell inh	1.5	-4.2[20.6 µM]	14.8	2.5	5.2	-2.2	-4.6	4.6	3.9	1.6

# 2 entries from above in a different format:
(9) Cc1ccccc1NC(=S)NCCC(c1ccccc1)c1ccccc1
  PNC assembly inh: 6.2
  IMPase cell inh: 3.9
(10) Cc1ccc(NC(=S)N/N=C/c2ccc(OCCC(C)C)cc2)c(C)c1
  PNC assembly inh: ?
  IMPase cell inh: 1.6

# In the list so far, four have a halogen:
1	COc1ccccc1NC(=O)C1=C(C)N(c2ccccc2)C(=S)NC1c1cccc(C(F)(F)F)c1 (stereo not given)
5	O=C1OCC(CO)(CO)N=C1NNc1ccc(Cl)c(Cl)c1
6	COc1ccc(C(=O)NC(=S)NC(C)C)cc1Br
7	S=c1nc(-c2cccc(Br)c2)[nH][nH]1
assay / entry	1	5	6	7
PNC assembly inh	29.8	22.0	?	-25.0
IMPase cell inh	1.5	5.2	-2.2	-4.6

# High-throughput results deposited in PubChem BioAssay by National Center for Advancing Translational Sciences (NCATS).

# The list is partial; most or all hits stand in other tables.
